High-throughput results (PubChem)
H5N1 antiviral: MDCK cell protection from H5N1 avian flu; 0.07% of 96,000 active; inhibition, % at 50 µM; cytopathic effect, luminescence, 72 h; stronger effect = higher value; no value below 0 was filed and about half of the inactive calls have no number; reference of the scale not given here; in the data active = inhibition above about 25%
* marks the source's active call; other numbers are inactive results.

COc1ccc2[nH]c(=O)c(CNc3ccc(C)c(C)c3)cc2c1 was read as H5N1 antiviral 0.5.
`COC(=O)N(c1ccccc1)P1(=S)OCCO1` gave H5N1 antiviral inactive.
O=C(NCc1cccs1)N[C@@H](Cc1ccccc1)C(=O)O was read as H5N1 antiviral inactive.
`COc1ccc(Cc2nnc(NS(C)(=O)=O)s2)cc1` gave H5N1 antiviral inactive.
`O=C(COC(=O)C1CC1)c1c[nH]c2ccccc12` gave H5N1 antiviral inactive.
O=C(CSCc1ccco1)c1ccc(Cl)s1 was read as H5N1 antiviral inactive.
Cc1cc(C)c2c(=O)n(CC(=O)N3CCC(Cc4ccccc4)CC3)sc2n1 was read as H5N1 antiviral 0.0.
For O=C(NC(NCc1ccccc1)C(Cl)(Cl)Cl)c1cccnc1 (stereo not drawn) the results were H5N1 antiviral inactive.
`CC(=O)NC(=S)Nc1ccc(-c2nc3ccc(C)cc3s2)cc1` gave H5N1 antiviral inactive.
For CCOC(=O)c1c(C)[nH]c(C(=O)OCC(=O)Nc2ccc(OC)c(Cl)c2)c1C the results were H5N1 antiviral 0.1.
For CCOC(=O)c1cccc(NS(=O)(=O)c2c(C)[nH]c(=O)[nH]c2=O)c1 the results were H5N1 antiviral 1.8.
For CCOC(=O)CC(=O)CSc1nc2nc(C)cc(C)n2n1 the results were H5N1 antiviral inactive.
`O=[N+]([O-])c1ccc(Cl)c(/C=N/N2CCN(Cc3ccccc3Cl)CC2)c1` gave H5N1 antiviral inactive.
For Cc1ccc(NC(=O)CSCc2c(C)noc2C)cc1C the results were H5N1 antiviral inactive.
`O=C(Nc1cc(C(F)(F)F)ccc1N1CCOCC1)C1Cc2ccccc2CN1C(=O)c1ccco1` (stereo not drawn) gave H5N1 antiviral inactive.
Cc1noc(C)c1COC(=O)COc1cccc2c1OC(C)(C)C2 was read as H5N1 antiviral inactive.
Screening O=C(Nc1nnc(SCc2ccc(Cl)cc2Cl)s1)C1COc2ccccc2O1 (stereo not drawn) returned H5N1 antiviral inactive.
`Cc1cccc(NC(=S)N/N=C/c2cccc([N+](=O)[O-])c2)c1` gave H5N1 antiviral 1.0.
CC1CCCCC1NC(=O)COC(=O)c1ccc(S(=O)(=O)NCc2ccco2)cc1 (stereo not drawn) was read as H5N1 antiviral inactive.
`O=C1c2ccccc2C(=O)N1CCC(=O)N1CCCc2ccccc21` gave H5N1 antiviral inactive.
Screening CCOC(=O)c1ccc(Nc2nnc(C(C)(C)C)c(=O)[nH]2)cc1 returned H5N1 antiviral inactive.
For O=C(Cn1[nH]c(=O)c2ccccc2c1=O)OCC(=O)N(Cc1ccccc1)Cc1ccccc1 the results were H5N1 antiviral 0.2.
For Cc1cnc(NC(=O)CSc2nnc(C)s2)s1 the results were H5N1 antiviral 2.0.
Screening Cc1onc(-c2ccccc2)c1C(=O)Nc1sc2c(c1C#N)CCC2 returned H5N1 antiviral 0.4.
Screening CN=C(Nc1ccccc1OC)SC1CC(=O)N(c2ccc(C(=O)OC)cc2)C1=O (stereo not drawn) returned H5N1 antiviral 2.0.
For N#Cc1c(Cl)nc(SCc2ccccc2)nc1-c1ccccc1 the results were H5N1 antiviral inactive.
O=c1c2cc(N3CCOCC3)ccc2[nH]c(=S)n1CCCN1CCCCCC1 was read as H5N1 antiviral 0.5.
Cc1ccccc1CN1C(=O)CSc2ccc(C(=O)N3CCOCC3)cc21 was read as H5N1 antiviral 1.2.
O=C(CC1OC(=O)c2ccccc21)Nc1ccccc1N1CCOCC1 (stereo not drawn) was read as H5N1 antiviral 0.1.
`CCCNc1nc2c(c(=O)n(C)c(=O)n2C)n1Cc1cccc(C)c1` gave H5N1 antiviral 5.4.
For COc1ccc(CCNC(=O)CCN2C(=O)C3CC=CCC3C2=O)cc1OC (stereo not drawn) the results were H5N1 antiviral inactive.
For CC(CC(=O)Nc1ccncc1)c1ccccc1 (stereo not drawn) the results were H5N1 antiviral 1.6.
CCCCn1c(SCC2CCCO2)nc2cc(S(N)(=O)=O)ccc21 (stereo not drawn) was read as H5N1 antiviral 0.7.
Screening Cc1cc2ccccc2nc1SCC(=O)N1c2ccccc2CC1C (stereo not drawn) returned H5N1 antiviral inactive.
Nc1nc2ccccc2nc1N1CCCC1 was read as H5N1 antiviral 0.7.
`CC1=CC(=C2C(=O)NC(=O)NC2=O)C=C(C(F)(F)F)N1C(C)C` gave H5N1 antiviral inactive.
`O=C(OCCN1C(=O)c2ccccc2C1=O)c1cccs1` gave H5N1 antiviral 4.6.
COc1cc(S(=O)(=O)N2CCCCCC2)ccc1-n1cnnn1 was read as H5N1 antiviral inactive.
For CC(Sc1ccc(Br)cc1)C(N)=O (stereo not drawn) the results were H5N1 antiviral inactive.
`Cc1ncc(CC(=O)n2cc(C(=O)c3cc(F)ccc3O)cn2)s1` gave H5N1 antiviral 1.7.
Fc1cccc(CN2CCN(c3ncccn3)CC2)c1 was read as H5N1 antiviral inactive.
COc1ccc(Cc2nnc(NC(=O)Cc3cccs3)s2)cc1 was read as H5N1 antiviral 2.2.
Cc1ccc(-c2nc3ccccc3c(=O)n2CCCN2CCOCC2)cc1 was read as H5N1 antiviral 0.4.
`CCC(C)c1ccc(-c2cc(C(=O)OCC(=O)Nc3cc(C)on3)c3ccccc3n2)cc1` (stereo not drawn) gave H5N1 antiviral inactive.
Screening CCC(=O)N1CCCc2cc(S(=O)(=O)NCc3cccs3)ccc21 returned H5N1 antiviral 1.8.
For CN(C)CCNC(=O)C(C(=O)c1ccccc1)n1ccccc1=O (stereo not drawn) the results were H5N1 antiviral 0.1.
For Cc1cc(C)nc(N2CCCC(C(=O)Nc3cc(F)ccc3C)C2)n1 (stereo not drawn) the results were H5N1 antiviral 0.5.
Screening CC(N=C1NS(=O)(=O)c2ccccc21)C(=O)NCc1ccc2c(c1)OCO2 (stereo not drawn) returned H5N1 antiviral 0.7.
`C=CCOc1c(Cl)cc(/C=N/O)cc1OC` gave H5N1 antiviral inactive.
Screening O=C(NCc1ccc(Cl)cc1)c1cc(-c2cccs2)on1 returned H5N1 antiviral 0.5.
For Cc1ccc(-c2c(C#N)c(N)nc3c2CCCC3)s1 the results were H5N1 antiviral 2.1.
For CCCOc1ccc2c3c(c(=O)oc2c1)CCCC3 the results were H5N1 antiviral inactive.
CCCN1C(=O)C(NC(C)=O)c2ccccc21 (stereo not drawn) was read as H5N1 antiviral inactive.
For Cc1ccc2nc(SCC(=O)N3c4ccccc4CC3C)c(C)cc2c1 (stereo not drawn) the results were H5N1 antiviral inactive.
For C/C(=C1/SC(N2CCOCC2)=NC1=O)c1ccc(Br)cc1 the results were H5N1 antiviral inactive.
Screening CC(C)N(Cc1nc(-c2ccccc2)no1)C(=O)C(C)(C)C returned H5N1 antiviral inactive.
`Cc1c(S(=O)(=O)N2CCN(c3cccc(C(F)(F)F)c3)CC2)c(=O)n(C)c(=O)n1C` gave H5N1 antiviral 0.7.
COC(=O)c1sccc1NC(=O)Nc1cccc(Cl)c1Cl was read as H5N1 antiviral inactive.
For Cc1nc2ccccc2cc1OCc1ccccc1 the results were H5N1 antiviral 0.2.
For CCC(Cc1ccccc1)NC(=O)C1CCC(CNc2c(N3CCCC3)c(=O)c2=O)CC1 (stereo not drawn) the results were H5N1 antiviral 3.1.
`O=C1C=C(NCc2ccco2)C2(CCCCC2)O1` gave H5N1 antiviral 0.7.
Screening Cc1[nH]c(=O)[nH]c(=O)c1CSc1nnc(CCCCCNC(=O)OC(C)(C)C)o1 returned H5N1 antiviral inactive.
`O=C(C(NS(=O)(=O)c1cccs1)c1ccccc1)N1CCN(c2ccccc2F)CC1` (stereo not drawn) gave H5N1 antiviral inactive.
`Cc1cc(C(=O)CSc2nc3ccccc3[nH]2)c(C)n1C` gave H5N1 antiviral 0.8.
For CC(C)NC(=O)CN(Cc1ccccc1)S(=O)(=O)c1ccccc1 the results were H5N1 antiviral 2.4.
Screening CC(C)(C)c1ccc(OCC(O)CS(=O)(=O)c2ccccn2)cc1 (stereo not drawn) returned H5N1 antiviral 2.5.
For COc1cc2c(cc1NS(=O)(=O)N1CCCC1)oc1ccccc12 the results were H5N1 antiviral 2.1.
Screening CCOc1ccc(-c2cc(N)n(S(=O)(=O)c3ccc(OC)cc3)n2)cc1 returned H5N1 antiviral 0.2.
For COC(=O)CCC(=O)COc1ccccc1C#N the results were H5N1 antiviral inactive.
For CCOC(=O)n1c(=O)n(Cc2ccccc2)c2ccccc21 the results were H5N1 antiviral 0.9.
`COc1ccccc1OCCCCNC(C)(C)C` gave H5N1 antiviral 0.7.
For CCOc1cc(C)c(S(=O)(=O)NC2CCCCC2)cc1C the results were H5N1 antiviral 2.2.
Screening COc1ccc2c(c1)CCc1c(C(=O)NCc3ccco3)noc1-2 returned H5N1 antiviral inactive.
`O=C(NN1C(=O)c2ccccc2NC1c1ccccc1OCc1ccccc1)c1ccncc1` (stereo not drawn) gave H5N1 antiviral inactive.
Nc1nc(Sc2ccc(C(F)(F)F)cc2[N+](=O)[O-])n[nH]1 was read as H5N1 antiviral 2.2.
For Cc1cc(C)c2cc(CN(CCN3CCCC3)C(=O)Nc3ccc(F)cc3)c(=O)[nH]c2c1 the results were H5N1 antiviral inactive.
COc1ccc(-n2c(Cc3cc(=O)[nH]c(=O)[nH]3)nnc2SCC(=O)Nc2ccccc2)cc1 was read as H5N1 antiviral 0.8.
Screening Cc1cc2n(n1)C(c1ccc3c(c1)OCO3)Nc1c(C)cccc1-2 (stereo not drawn) returned H5N1 antiviral 0.3.
For C=CCn1c(=O)/c(=C/c2ccc(C)o2)s/c1=C(/C#N)C(=O)c1ccccc1 the results were H5N1 antiviral 2.4.
For O=C(CSc1nc2ccccc2c(=O)n1CCCC(=O)N1CCCC1)NCc1ccco1 the results were H5N1 antiviral 2.5.
For COCc1cc(C)nc(NC2CCCCC2)c1C#N the results were H5N1 antiviral inactive.
Screening COc1ccc(NS(=O)(=O)Cc2ccccc2Cl)cn1 returned H5N1 antiviral 0.8.
Screening COC(=O)[C@H](CCSC)NC(=O)Nc1ccc(OC)cc1OC returned H5N1 antiviral 0.1.
`COc1ccc(NC(=O)C23CCC(C)(C(=O)C2)C3(C)C)cc1` (stereo not drawn) gave H5N1 antiviral 0.8.
Screening CC(=O)N1CCc2cc(S(=O)(=O)NCCC(=O)NC3CCCc4ccccc43)ccc21 (stereo not drawn) returned H5N1 antiviral 0.3.
Screening COc1ccc(-c2cc(-c3ccccc3)nc(-c3ccc4c(c3)NC(=O)CO4)c2)cc1 returned H5N1 antiviral inactive.
CC1CC(C)CN(C(=O)Cn2c(=O)n(CCCCC(=O)NC3CCCC3)c(=O)c3ccccc32)C1 (stereo not drawn) was read as H5N1 antiviral inactive.
For O=C(Nc1cccc2ccccc12)N1CC=C(c2ccccc2)CC1 the results were H5N1 antiviral inactive.
Screening CCN(CC)S(=O)(=O)c1ccc2oc(C(=O)NC3CCCc4ccccc43)c(C)c2c1 (stereo not drawn) returned H5N1 antiviral 0.2.
CC1(C(=O)NC2CCCC2)CCC(=O)N1Cc1ccccc1 (stereo not drawn) was read as H5N1 antiviral 0.2.
`O=C(O)CCn1cnc2ccccc2c1=O` gave H5N1 antiviral 0.3.
Cc1ccc(-c2csc3nnc(SCC(=O)N4CCN(Cc5ccccc5)CC4)n23)cc1 was read as H5N1 antiviral inactive.
Screening O=C(Nc1ccc(N2CCN(Cc3ccccc3)CC2)cc1)c1ncn[nH]1 returned H5N1 antiviral 0.4.
Screening O=C1N=C(N2CCOCC2)S/C1=C/c1cccs1 returned H5N1 antiviral 3.6.
CON1C(=O)C(=O)N(OC)C2CCCCC21 (stereo not drawn) was read as H5N1 antiviral 0.3.
Screening CCOc1ccc(C(=O)NCc2ccncc2)cc1OCC returned H5N1 antiviral 0.6.

15 consecutive compounds already listed, quoted:
For C=CCn1c(=O)/c(=C/c2ccc(C)o2)s/c1=C(/C#N)C(=O)c1ccccc1 the results were H5N1 antiviral 2.4.
For O=C(CSc1nc2ccccc2c(=O)n1CCCC(=O)N1CCCC1)NCc1ccco1 the results were H5N1 antiviral 2.5.
For COCc1cc(C)nc(NC2CCCCC2)c1C#N the results were H5N1 antiviral inactive.
Screening COc1ccc(NS(=O)(=O)Cc2ccccc2Cl)cn1 returned H5N1 antiviral 0.8.
Screening COC(=O)[C@H](CCSC)NC(=O)Nc1ccc(OC)cc1OC returned H5N1 antiviral 0.1.
`COc1ccc(NC(=O)C23CCC(C)(C(=O)C2)C3(C)C)cc1` (stereo not drawn) gave H5N1 antiviral 0.8.
Screening CC(=O)N1CCc2cc(S(=O)(=O)NCCC(=O)NC3CCCc4ccccc43)ccc21 (stereo not drawn) returned H5N1 antiviral 0.3.
Screening COc1ccc(-c2cc(-c3ccccc3)nc(-c3ccc4c(c3)NC(=O)CO4)c2)cc1 returned H5N1 antiviral inactive.
CC1CC(C)CN(C(=O)Cn2c(=O)n(CCCCC(=O)NC3CCCC3)c(=O)c3ccccc32)C1 (stereo not drawn) was read as H5N1 antiviral inactive.
For O=C(Nc1cccc2ccccc12)N1CC=C(c2ccccc2)CC1 the results were H5N1 antiviral inactive.
Screening CCN(CC)S(=O)(=O)c1ccc2oc(C(=O)NC3CCCc4ccccc43)c(C)c2c1 (stereo not drawn) returned H5N1 antiviral 0.2.
CC1(C(=O)NC2CCCC2)CCC(=O)N1Cc1ccccc1 (stereo not drawn) was read as H5N1 antiviral 0.2.
`O=C(O)CCn1cnc2ccccc2c1=O` gave H5N1 antiviral 0.3.
Cc1ccc(-c2csc3nnc(SCC(=O)N4CCN(Cc5ccccc5)CC4)n23)cc1 was read as H5N1 antiviral inactive.
Screening O=C(Nc1ccc(N2CCN(Cc3ccccc3)CC2)cc1)c1ncn[nH]1 returned H5N1 antiviral 0.4.

Carrying on:
Screening CS(=O)(=O)N(CC(=O)NCCC1=CCCCC1)C1CCCCC1 returned H5N1 antiviral 1.1.
`Cc1cc(C(=O)OCC(=O)c2ccc(Br)s2)no1` gave H5N1 antiviral inactive.
Screening CCOC(=O)c1c(N)sc2c(NC(C)=O)cccc12 returned H5N1 antiviral inactive.
CN1C2CCC1/C(=C\c1ccccc1Cl)C(=O)/C2=C\c1ccccc1Cl was read as H5N1 antiviral inactive.
`Cc1occc1C(=O)N1CCN(S(C)(=O)=O)CC1` gave H5N1 antiviral inactive.
Screening Nc1cccnc1Sc1ccc(Cl)cc1 returned H5N1 antiviral inactive.
For CCn1nc(C)c(/C=N\NC(=O)c2ccc3c(c2)OCO3)c1C the results were H5N1 antiviral inactive.
For CCSC1=C(C#N)C(c2ccccc2Cl)CC(=O)N1 (stereo not drawn) the results were H5N1 antiviral inactive.
`COC(=O)c1ccc(NC(=S)N2CCN(Cc3cccc(C)c3)CC2)cc1` gave H5N1 antiviral 0.6.

Only part of the results is shown; count on the stated rates, not on these rows.
